# PINK1 expr mod – changes PINK1 expression; PINK1 immunofluorescence, high-content cytometry, 24 h; Potency, µM (titrated, usually from 76.6 µM), for inactives: at the top dose activation (PINK1 increase), actives largely listed as activators; 0.2% of 410,000 active; AID 624263; active = well fitted activation curve with a large enough effect; inconclusive = small, poorly fitted or top-dose-only effect; inactive = flat fitted curve, though single readings scatter; cell line not stated here;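 note: potency is the fitted concentration of half-maximal effect; % of control where 0% means no effect; nearly all actives have a fitted effect of over 65% in size; a mitochondrial uncoupler was the plate control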
#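 Readout is PINK1 immunofluorescence, quantified alongside mitochondrial, cell and nuclear markers by laser-scanning microplate cytometry. Cells from a stable line were exposed to compound titrations (5 concentrations) for 24 hours, with CCCP controls.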
# D2 ag – human D2 receptor agonism in beta-arrestin assay | 0.084% of 360,000 active | activation, % (concentration not given with the values) | DiscoveRx PathHunter D2 beta-arrestin, luminescence, 90 min; 100% = 57 uM dopamine signal | AID 624465 | P14416; in the data active = activation above about 40%; inconclusive = about 15% to 40%; inactive = below about 15%; note: compound concentration not given in the record; the text of the record calls up to 30% inactive
#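 Agonist mode: compounds alone added to overnight-plated D2 PathHunter cells for 90 min at 37 C, with 57 uM final dopamine (EC100) defining full response. Beta-arrestin recruitment detected by chemiluminescent reagent, read after 1 h at ambient temperature.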
# Six1-Eya2 inh – inhibitors of human Six1/Eya2 interaction. Q15475+O00167. AlphaScreen GST-Six1/His-Eya2 binding, biochemical; active compounds read low; control for the full effect not named in the record. activity change, % (concentration not given with the values). 0.56% of 360,000 active. AID 651725; in the data active = activity change below about -65%; inconclusive = about -30% to -65%; inactive = above about -30%; note: % is set by controls: 0 for no effect and ±100 for the full control effect
# Target sequence (O00167 whole entry, looked up): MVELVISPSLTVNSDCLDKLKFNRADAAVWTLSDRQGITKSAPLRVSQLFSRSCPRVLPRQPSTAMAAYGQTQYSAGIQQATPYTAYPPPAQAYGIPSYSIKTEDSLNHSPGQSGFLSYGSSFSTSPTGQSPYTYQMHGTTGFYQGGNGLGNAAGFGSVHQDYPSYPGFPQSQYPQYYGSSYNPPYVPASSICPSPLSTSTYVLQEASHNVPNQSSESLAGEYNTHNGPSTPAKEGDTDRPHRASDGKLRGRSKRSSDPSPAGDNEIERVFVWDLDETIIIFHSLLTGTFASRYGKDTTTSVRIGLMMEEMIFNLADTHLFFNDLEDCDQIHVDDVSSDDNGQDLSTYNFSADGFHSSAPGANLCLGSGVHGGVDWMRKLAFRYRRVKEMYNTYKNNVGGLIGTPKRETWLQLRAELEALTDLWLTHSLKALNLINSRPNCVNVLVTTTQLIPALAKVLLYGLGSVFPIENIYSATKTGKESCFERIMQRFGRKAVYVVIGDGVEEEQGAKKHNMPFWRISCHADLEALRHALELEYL
# Target sequence (Q15475 whole entry, looked up): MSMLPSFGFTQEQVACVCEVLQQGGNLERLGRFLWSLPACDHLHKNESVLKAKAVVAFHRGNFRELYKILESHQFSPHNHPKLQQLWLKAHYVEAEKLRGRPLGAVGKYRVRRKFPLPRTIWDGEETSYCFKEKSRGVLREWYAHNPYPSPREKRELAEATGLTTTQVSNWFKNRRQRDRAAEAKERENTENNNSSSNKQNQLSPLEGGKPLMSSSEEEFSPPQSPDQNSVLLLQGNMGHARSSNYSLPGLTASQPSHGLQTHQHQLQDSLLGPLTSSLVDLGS
#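 Compounds are tested against tagged Six1 and Eya2 proteins bridged by glutathione donor and nickel acceptor beads; after a one-hour incubation at 37 °C without light, AlphaScreen emission is recorded.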
# D2 potentiator – positive allosteric modulators of human D2 dopamine receptor. P14416. DiscoveRx D2 beta-arrestin cells, luminescence, 90 min; 100% = 57 uM dopamine signal. potentiation, % (no concentration beside the values). 0.23% of 360,000 active. AID 624464; active = potentiation of 50% or more; inconclusive = 30% to 50%; inactive = 30% or less;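 note: compound concentration not given in the record; tested on top of an EC20 dose of dopamine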
#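 PathHunter D2 cells, attached overnight at 37 deg C, received compound in DMSO plus dopamine at EC20 (50 nM final) for 90 min at 37 deg C. Beta-arrestin recruitment was read as luminescence after 1 h with detection reagent at ambient temperature.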
# TRPML1 inh – human mucolipin-1 channel inhibition; Q9GZU1; TRPML1-inducible cells, Ca2+ dye fluorescence, FDSS; active compounds read low; inhibition of EC80 agonist-evoked calcium signal; activity change, negative = inhibition, % (test concentration not listed); 0.02% of 390,000 active; in the data active means activity change below about -50%; inconclusive means about -30% to -50%; inactive means above about -30%;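 note: stimulus is agonist 54-4 at its EC80 concentration; % is set by controls: 0 for no effect and ±100 for the full control effect; compound concentration not given in the record; the text of the record puts the active cut at -80%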
#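 Calcium fluorescence in TRPML1-DL cells induced overnight with Tet: a 110 s read after compound pin addition, then a 110 s antagonist read after challenge with 54-4 at 4 uM final (EC80).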
# TRPML1 agonist – human mucolipin-1 channel agonism; TRPML1-expressing cells, Ca2+ dye fluorescence, FDSS; host cell line not named in the record; reference of the full effect not given here; AID 624414; activation, % (concentration not given with the values); 0.12% of 410,000 active; Q9GZU1; in the data active = activation above about 50%; inconclusive = about 30% to 50%; inactive = below about 30%; note: 0% is about no effect; the text of the record puts the active cut at 80%
#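 In this qHTS format, compounds were pin-transferred onto Ca8-dye-loaded TRPML1-DL cells induced with Tet overnight, and intracellular Ca2+ fluorescence was recorded kinetically for 110 s after a 10 s baseline. A subsequent 4uM final 54-4 (EC80) addition followed by a second 110 s read served as the antagonist phase.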
# * marks the source's active call; other numbers are inactive results; ? = inconclusive; / = not tested or not shown; & = joins results of further samples; [ ] = remark or other dose. No enrichment for hits; about 1% have a hit in one of these screens.
SMILES,PINK1 expr mod,D2 ag,Six1-Eya2 inh,D2 potentiator,TRPML1 inh,TRPML1 agonist
COC(=O)C1=C(C)Nc2c(c(=O)n(C)c(=O)n2C)C1c1ccc(Cl)cc1 (configuration not stated),0.6%,-8.9,-15,7,29,0.6
Cc1ccc(S(=O)(=O)C(F)(F)F)cc1NC(=O)c1cccnc1,5.4%,0.4,4,1,-18,1.0
CCOC(=O)c1c(/N=C/c2cc(C)ccc2O)sc2c1CCN(C)C2,7.6%,-6.0,-1,-16,-5,-0.4
O=c1c(C=Nc2ccc(Oc3ccccc3)cc2)c[nH]n1-c1cccc(Cl)n1,5.0%,-0.7,8,-24,11,0.6
CNc1c(NS(=O)(=O)c2ccc(F)c(Cl)c2)c(=O)oc2ccccc12,6.9%,-2.1,-6,0,8,-0.2
CCOCCCNC(=O)C1CCCN(S(=O)(=O)c2ccc(-n3cnnn3)cc2)C1 (configuration not stated),0.9%,-3.1,18,-1,-6,0.5
Cn1cc(S(=O)(=O)N2CCCCC2)cc1C(=O)N1CCN(c2ccc(F)cc2)CC1,2.3%,/,/,/,-4,-0.2
CCN1C(=O)CC(N2CCC(C(=O)N3CCCCCC3)CC2)C1=O (configuration not stated),1.2%,-2.0,5,-10,-12,0.1
Cc1ccc(-c2nnc(SCC(=O)N(C)C)nc2-c2ccc(C)cc2)cc1,2.0%,-2.2,-12,-3,33,2.9
O=C(NCc1ccc(OC(F)(F)F)cc1)c1cc(-c2ccccc2)nn1CC1CC(c2cccnc2)=NO1 (configuration not stated),0.8%,1.0,0,-35,-2,-0.3
Nn1c(SCC(=O)NC2CCCCCC2)nnc1-c1ccco1,3.1%,-0.1,-1,-4,15,-0.5
N=C1c2ccccc2CN1NC(=O)c1cccc(S(=O)(=O)N2CCCCC2)c1,1.9%,-1.9,-6,-9,-6,-0.2
O=C(N/N=C/c1cccs1)c1cc(-c2ccc(Cl)s2)[nH]n1,6.2%,3.7,-2,-1,-6,-0.3
CC(=O)N1CCN(Cc2nc3cc(NC(=O)NC4CCCCC4)ccc3n2C)CC1,1.8%,2.4,3,-10,-3,-0.8
O/N=C(/c1ccc(Cl)cc1)C1CC1c1ccccc1 (configuration not stated),5.1%,2.2,5,-4,27,0.1
CCCN1C(=O)c2ccc(C(=O)Nc3ccc4c(c3)OCO4)cc2C1=O,7.3%,-3.8,-2,-2,1,0.0
CC(=O)c1ccccc1Oc1nc(CN2CCOCC2)nc2scc(-c3cccs3)c12,0.5%,-1.8,-8,-8,-4,-0.9
COC(=O)c1ccccc1NC(=O)Cn1nnc(-c2ccc3c(c2)OCO3)n1,3.2%,-2.1,5,9,5,0.0
COc1ccc(-c2nnc(Nc3ccc(S(=O)(=O)Nc4nccs4)cc3)c3ccccc23)cc1,2.6%,1.0,?,0,-7,0.0
CCOC(=O)N1CCN(C(=O)CN(Cc2ccccc2)S(=O)(=O)c2ccc(OC)c(Cl)c2)CC1,-5.1%[38.3 µM],5.5,-2,4,17,-0.4
COc1ccc(-c2c(C)[nH]n3c(=O)c(Cc4ccccc4)c(C)nc23)cc1OC,-2.8%,0.3,-67*,-18,-14,0.9
O=C(O)/C(=C\c1cccc(F)c1)c1ccc(S(=O)(=O)N2CCCCC2)s1,1.4%,-5.9,-3,10,-20,-0.6
Cc1ccc(Cl)cc1N1CCN(C(=O)c2cc3ccc4cccnc4c3[nH]2)CC1,-17%,/,/,/,-4,2.2
N#Cc1c(NC(NC(=O)c2ccco2)C(=O)c2ccccc2)sc2c1CCCC2 (configuration not stated),/,-1.1,-14,-10,-1,1.9
Cc1ccccc1CN1C(=O)C(O)(CC(=O)c2cccc(Br)c2)c2ccccc21 (configuration not stated),5.5%,/,/,/,-3,1.7
SMILES,PINK1 expr mod,D2 ag,Six1-Eya2 inh,D2 potentiator,TRPML1 inh,TRPML1 agonist
COc1ccc(Cc2nc(C(=O)Nc3ccc(F)cc3)cs2)cc1,-1.7%,0.6,21,15,2,2.5
C/C(=N\Nc1ccc([N+](=O)[O-])cc1)c1ccc(N2CCOCC2)cc1,0.5%,-8.8,-5,2,20,8.8
Cn1c(=O)oc2cc(S(=O)(=O)N3CCC(C(=O)N4CCN(c5cccc(Cl)c5)CC4)CC3)ccc21,4.4%,/,/,/,26,-0.4
Cc1ccc(C(=O)Nc2cccnc2N2CCN(C)CC2)cc1,0.2%,-8.2,4,-10,-8,-0.1
Cn1nc(C(C)(C)C)c(NC(=O)c2sccc2Cl)c1C(C)(C)C,-0.7%,-2.9,5,1,-7,1.3
CN(Cc1c(F)cccc1Cl)C(=O)c1cc2ccccc2o1,4.1%,-3.2,23,-12,18,1.8
COc1cccc(NC(=O)CN(C)C(=O)C2CC(=O)N(CCc3ccc(OC)c(OC)c3)C2)c1 (configuration not stated),-1.9%,3.2,-9,-9,23,0.0
O=C(/C=C/c1cccs1)NC(=S)Nc1ccccc1,-0.2%,-1.5,-1,-9,-8,0.7
CCCC(C)NC(=O)COC(=O)c1cc(Br)c(Br)s1 (configuration not stated),5.0%,2.6,7,-7,50,0.1
CC(=O)Nc1ccc(NC(=O)C2CCCN(S(=O)(=O)c3ccc(Cl)cc3)C2)cc1 (configuration not stated),6.7%,-0.4,0,-11,1,-0.4
O=C(CCCn1c(=O)c2ccccc2n(Cc2ccc(F)cc2Cl)c1=O)NCCc1ccc(Cl)cc1,-0.4%,/,/,/,33,-0.7
CCOC(=O)NC(=S)Nc1c(C)n(C)n(-c2ccccc2)c1=O,-1.0%,-1.0,18,2,11,-0.8
CC1CN(C(=O)c2cc(S(=O)(=O)N3CCCCC3)ccc2Cl)CC(C)O1 (configuration not stated),0.4%,2.5,0,12,-5,1.3
CCOC(=O)c1ccc(N2C(=O)C(CC(N)=O)N(NC(=O)c3cccc(F)c3)C2=S)cc1 (configuration not stated),0.6%,-6.1,1,-8,3,1.3
COc1ccc(Nc2cc(C)c3c(O)cccc3n2)cc1,-1.0%,2.9,-2,-19,/,/
Cc1ccc(OCCC(=O)OCC(=O)N2c3ccccc3NC(=O)C2(C)C)cc1,-1.3%,-2.4,-4,-25,13,2.8
COc1ccc(CCNC(=O)CSc2ccc3nnc(CCNC(=O)c4ccccc4)n3n2)cc1OC,5.0%,-3.9,-2,-8,0,-0.1
COc1ccc(NC(=O)CN(C)C(=O)CCNC(=O)Nc2ccccc2)cc1,1.9%,-3.2,-1,-36,-1,-0.2
CC(O)CNC12CC3CC(CC(C3)C1)C2 (configuration not stated),2.0%,-4.7,-1,-3,8,-0.5
O=C(NCc1ccncc1)/C(=C\c1ccc(F)cc1)NC(=O)c1ccccc1,0.2%,-0.1,-3,1,20,-0.7
CC(=O)NC(Cc1cccc(C)c1)C(=O)NC1CCN(C(=O)c2ccc([N+](=O)[O-])cc2)CC1 (configuration not stated),-0.2%,-2.1,0,-5,0,0.2
CC(C)c1ccc(-c2noc(C3CCCN(S(C)(=O)=O)C3)n2)cc1 (configuration not stated),-2.6%,-1.2,2,-5,-6,-0.9
CC(C)(C)NC(=O)CSc1nc2ccccc2n1-c1ccccc1,1.9%,13,-17,1,-6,0.5
CCC(c1nnnn1C(C)(C)CC)N(CCN1CCOCC1)Cc1cc2cc(C)ccc2[nH]c1=O (configuration not stated),2.2%,-4.4,0,-15,52,-0.4
O=C(Nc1ccc(Cl)cc1)c1ccc(-n2cccn2)c([N+](=O)[O-])c1,0.1%[38.3 µM],-1.3,-6,-9,-11,0.4

# With a hit mark in Six1-Eya2 inh (from the list above):
structure,PINK1 expr mod,D2 ag,Six1-Eya2 inh,D2 potentiator,TRPML1 inh
COc1ccc(-c2c(C)[nH]n3c(=O)c(Cc4ccccc4)c(C)nc23)cc1OC,-2.8%,0.3,-67*,-18,-14

# Complete entries, looked up by structure. Order of screens: PINK1 expr mod | D2 ag | Six1-Eya2 inh | D2 potentiator | TRPML1 inh | TRPML1 agonist
# `COC(=O)C1=C(C)Nc2c(c(=O)n(C)c(=O)n2C)C1c1ccc(Cl)cc1` (configuration not stated) across the screens: 0.6% | -8.9 | -15 | 7 | 29 | 0.6
# `O=C(/C=C/c1cccs1)NC(=S)Nc1ccccc1` across the screens: -0.2% | -1.5 | -1 | -9 | -8 | 0.7
# `CC(C)c1ccc(-c2noc(C3CCCN(S(C)(=O)=O)C3)n2)cc1` (configuration not stated) across the screens: -2.6% | -1.2 | 2 | -5 | -6 | -0.9
# `O/N=C(/c1ccc(Cl)cc1)C1CC1c1ccccc1` (configuration not stated) across the screens: 5.1% | 2.2 | 5 | -4 | 27 | 0.1

# Next entries
SMILES,PINK1 expr mod,D2 ag,Six1-Eya2 inh,D2 potentiator,TRPML1 inh,TRPML1 agonist
CCOC(=O)Nc1cccnc1Sc1ccc(Cl)cc1,1.4%,-1.5,18,-2,-5,0.9
FC(F)(F)c1cccc(NC(=S)NCCc2ccccn2)c1,1.9%,1.4,-1,-23,8,1.6
CCOC(=O)N1CCN(C(=O)CS(=O)(=O)Cc2nc(-c3cccc(OC)c3)oc2C)CC1,3.0%,-0.6,2,-6,-15,2.0
O=C1c2cccnc2C(=O)N1CO,-2.8%,0.7,-5,-4,-10,-0.3
Cc1ccc(C)c(Nc2nc(-c3ccncc3)nc3ccccc23)c1,3.2%,4.6,7,-4,4,1.0
Cc1ccc(C(=O)c2cn(Cc3ccccc3C)c3nc(C)ccc3c2=O)cc1,-0.5%,/,/,/,8,1.3
O=Cc1ccc(OCc2ccccn2)cc1,-1.5%[38.3 µM],-3.2,5,-5,-8,0.3
COc1ccc2c(CNCCc3cccs3)c(C(=O)O)n(Cc3ccc(F)cc3Cl)c2c1,0.9%,/,/,/,66,2.2
O=C1CCN(CCc2ccccc2)CCN1[C@H](CSc1ccccc1)Cc1ccccc1,?,-1.7,-15,-27,0,1.7&0.7
COc1cccc2c1O/C(=N\O)C(C(=O)Nc1ccc(C)cc1)C2 (configuration not stated),1.5%,-14,-1,-3,19,2.3
NC(=O)CC(c1ccccc1)c1ccco1 (configuration not stated),-1.8%,-0.9,3,0,20,2.2
Cc1ccc2nc(-c3ccc(N4CCOCC4)cc3)c(Nc3ccccc3C)n2c1,-2.0%,/,/,/,21,-0.8
Cc1ccc(OCC(O)CN2CCN(CC(O)COc3ccc(C)cc3Cl)CC2)c(Cl)c1 (configuration not stated),11µM*,0.5,2,-26,-1,-0.2
CN1CCN(S(=O)(=O)c2ccc(NCc3ccc4c(c3)OCO4)nc2)CC1,13%,-1.3,-6,-3,19,1.2
N#Cc1ccc(OCC(=O)N/N=C2/CC(c3ccccc3)Oc3ccccc32)cc1 (configuration not stated),1.9%,2.9,2,5,0,1.5
O=C(Cn1cc([N+](=O)[O-])cn1)Nc1ccn(Cc2c(F)c(F)cc(F)c2F)n1,?,-2.0,2,-10,-16,0.6
CC(=O)CSc1nnc(CSc2ncccn2)n1C1CCCCC1,?,0.3,-5,-3,-7,0.9
CN(C)CCCn1c(=O)n(Cc2ccco2)c(=O)c2c3c(sc21)CCCCC3,-1.7%,-2.2,-15,-22,34,-0.2
CCn1c(C)nc2cc(C(=O)N/N=C/c3cccc(O)c3O)ccc21,6.9%,2.2,-80*,6,5,-0.8

# Screens from PubChem.
